# Compound activity deposited in PubChem by Southern Research Institute.
# Mtb H37Rv: Mycobacterium tuberculosis H37Rv growth inhibition, cell based, confirmatory dose response (AID 1949); most inactive calls were filed without a number and no value below 0 was filed; one-dose inhibition, % at 10 µg/mL; IC50 in µg/mL for titrated hits; 100,000 tested, 1.6% active;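 active = confirmed in a dose series; inconclusive = about 50% or more but not retested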;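 note: bacteria grown 7 days with compound before Alamar blue readout; 0% = untreated bacteria and 100% = reference antibiotic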
# * hit, by the source's call; i = inactive; ? = inconclusive. Not all compounds are listed (hit frequency here may not be typical).
SMILES,Mtb H37Rv
COC(=O)c1ccccc1NC(=O)Nc1ccc(C(=O)N2CCOCC2)cc1,i
C=CCNC(=S)NNC(=O)c1ccc(OC(C)C)cc1,i
O=C(NCc1ccco1)C1CC(c2cccc(Br)c2)=NO1 (stereo not given),i
CCN(CC)C(=O)C1CCCN(c2ccc([N+](=O)[O-])cc2S(=O)(=O)N2CCOCC2)C1 (stereo not given),i
CC(=O)c1cccc(N(CC(=O)Nc2ccc(Br)c(Cl)c2)S(C)(=O)=O)c1,i
COC(=O)CN1C(=S)N(c2ccccc2)C(=O)C1CC(=O)Nc1ccc(I)cc1 (stereo not given),i
O=C1c2c(Cl)c(Cl)c(Cl)c(Cl)c2C(=O)N1c1ncn[nH]1,i
CCn1c(=O)n(CC)c2cc(S(=O)(=O)N3CCc4ccccc43)ccc21,2.8%
COC(=O)Cc1ccc(NC(=S)NCCCN2CCOCC2)cc1,i
Cc1ccc(Br)cc1S(=O)(=O)N1CCCCC1,3.1%
OC(c1ccc[nH]1)(C(F)(F)F)C(F)(F)F,1.9%
COC(=O)C(C)(C)C1c2cc(Br)ccc2OC(=O)C1C(=O)c1ccccc1 (stereo not given),i
CC(C)C(=O)Nc1cccc(NC(=S)NC(=O)c2ccc([N+](=O)[O-])cc2)c1,i
Cc1ccccc1-c1nnn(Cc2ccc(Cl)cc2)n1,i
CCOC(=O)CSc1nc2ccc(I)cc2c(=O)n1Cc1ccccc1,1.8%
CCOc1ccc(NC(=O)Cn2c(C)c(C#N)c3ccccc32)cc1,i
Cc1ccccc1Cn1cc(NC(=O)c2nc3ncccn3n2)cn1,i
CC(C)(C)c1ccc(S(=O)(=O)N2CCNCC2)cc1,i
CC(=O)Nc1ccc(NC(=O)c2c(-c3ccccc3)noc2C)cc1,i
CC(=O)Nc1ccc2nc(SCC(=O)N3CCN(c4ccccc4)CC3)sc2c1,i
Cc1cn(S(=O)(=O)c2c(C)c(C)cc(C)c2C)cn1,i
O=C(Cn1nc(-c2ccc(Cl)cc2)c2ccccc2c1=O)N1CCN(c2ccccc2)CC1,i
COc1cc(/C=C2/N=C(c3ccccc3)OC2=O)cc(Br)c1OC(=O)c1cccs1,0.9%
Cc1ccc(C(=O)C2=C(O)C(=O)N(c3nc4ccc(Cl)cc4s3)C2c2ccccc2F)o1 (stereo not given),i
O=C(COc1ccc(Br)cc1)Nc1nc2ccc(Cl)cc2s1,i
CC1CCc2nc(NC(=O)CSc3nc4ccccc4[nH]3)sc2C1 (stereo not given),i
CCOc1ccc(N2C(=O)c3cccc4cc(Br)cc(c34)C2=O)cc1,i
CCC(=O)Nc1nonc1-c1nc2ccccc2n1Cc1cc(OC)ccc1C,5.5%
COc1ccc(C)cc1NS(=O)(=O)c1ccc(Cl)s1,0.3%
Oc1ccc(-c2csc(Nc3ccccn3)n2)cc1O,i
c1ccc(-n2cccc2CNC2CCCCC2)cc1,1.3%
Cc1c(NS(=O)(=O)c2ccc(O)c(C(=O)O)c2)c(=O)n(-c2ccccc2)n1C,i
CSCCC(C(=O)Nc1ccc(C)cc1)N1C(=O)C2C3c4ccccc4C(c4ccccc43)C2C1=O (stereo not given),6.8%
O=C(CCSc1ccccc1)Nc1ccc(Cl)cn1,i
COc1ccc(NC(=O)c2ccc(C)o2)cc1OC,i
CC(NC(=O)c1ccccc1NC(=O)c1ccccc1Cl)c1ccccc1 (stereo not given),5.7%
S=C(Nc1ccc(Br)cc1Cl)NC1CCN(Cc2ccccc2)CC1,?
O=c1[nH]c(O)c(C=NCCCN2CCOCC2)c(=O)[nH]1,i
O=C(CSc1nnc(Cc2ccccc2)o1)c1ccc(Oc2ccccc2)cc1,19.3%
COC(=O)C(C(=O)Nc1ncccn1)C1CCCCCC1 (stereo not given),i
Cc1ccccc1NC(=O)C1CCN(S(=O)(=O)c2ccccc2)CC1,i
Cc1nc2ccccc2nc1CSc1nnc(Cc2ccccc2)n1-c1ccccc1,i
C=CCN(CC=C)S(=O)(=O)c1ccc(NC(=O)c2ccco2)cc1,i
CCOc1ccc(NC(=O)CCC2CCCCC2)cc1,0.9%
COc1ccc(S(=O)(=O)Nc2ccc3[nH]c(=O)[nH]c3c2)cc1OC,i
CCN1CCN(C(=O)c2cnn3c(C(F)F)cc(-c4ccccc4)nc23)CC1,2.2%
CCCC(=O)c1ccc(N2CCN(C(=O)C(C)C)CC2)c(F)c1,i
C=CCOc1c(Br)cc(CNCC(C)O)cc1OC (stereo not given),3.0%
O=C1CC(N2CCCCC2)C(=O)N1c1ccc(Cl)c(C(F)(F)F)c1 (stereo not given),i
COc1cc(C2C3=C(CC(C)(C)CC3=O)Nc3[nH]c(=O)[nH]c(=O)c32)ccc1OCc1ccccc1 (stereo not given),i
COc1ccc(CN2C(=O)C(O)(CC(=O)c3ccc(C)s3)c3ccccc32)cc1OC (stereo not given),i
NC(=O)c1c(NC(=O)COc2cc(Cl)c(Cl)cc2Cl)sc2c1CCCC2,i
CN(C)S(=O)(=O)c1ccc(C(=O)NC2CCCCC2)cc1,i
Nc1nc(-c2ccccc2)nn1C(=O)c1cccc([N+](=O)[O-])c1,i
O=C(NCc1ccc2c(c1)OCO2)c1ccc(S(=O)(=O)N2CCCCC2)cc1,i
COc1ccc(CNC(=O)Nc2cccc(Cl)c2)cc1,4.0%
N#Cc1cnc(Nc2nc3ccccc3o2)nc1-c1ccccc1,41.2%
O=[N+]([O-])c1cccc(NC(=S)Nc2cccnc2)c1,i
O=C(COc1ccc([N+](=O)[O-])cc1)Oc1ccc(Cl)cc1,i
O=c1c(-c2cnn(-c3ccccc3)c2)coc2c3c(ccc12)OCO3,1.6%

# Some of these compounds in order of molecular weight, low to high.
SMILES,Mtb H37Rv
Cc1ccc(Br)cc1S(=O)(=O)N1CCCCC1,3.1%
CCCC(=O)c1ccc(N2CCN(C(=O)C(C)C)CC2)c(F)c1,i
CSCCC(C(=O)Nc1ccc(C)cc1)N1C(=O)C2C3c4ccccc4C(c4ccccc43)C2C1=O (stereo not given),6.8%

# Other structures follow:
SMILES,Mtb H37Rv
O=C(NNC(=S)NC(=O)c1ccc(-c2ccc(Br)cc2)o1)c1ccncc1,?
COC(=O)C(NC(=O)c1ccc(Cl)cc1)C(F)(F)F (stereo not given),i
O=C1C2C3c4ccccc4C(c4ccccc43)C2C(=O)N1Cc1ccccc1 (stereo not given),i
CCOC(=O)c1cc(-c2ccccc2)sc1NC(=S)NCCCn1cc(Br)cn1,10.0%
Cc1nc(C)n(C(=O)N(c2ccccc2)c2ccccc2)n1,i
CCOC(=O)C1CCN(C(=O)CCC2CCCCC2)CC1,i
CC(Oc1cccc(NC(=O)c2ccc(Br)cc2)c1)C(=O)c1ccccc1 (stereo not given),i
S=C(NCCc1ccccc1)NCc1ccccc1Cl,i
O=C(CC1Nc2ccccc2NC1=O)Nc1ccccc1F (stereo not given),i
O=C(CS(=O)(=O)c1ccccc1)Nc1nc(-c2ccccc2)cs1,i
CNC(=O)CCCc1nc(-c2cccc(C)c2)no1,i
O=C(Nc1ccc(C(=O)OC2CCCCC2)cc1)c1cncc(Br)c1,i
S=C(Nc1cccnc1)N1CCN(C(c2ccccc2)c2ccccc2)CC1,1.2%
COC(=O)C1=C(C)N(Cc2ccc(OC)cc2)C(=O)C1,i
CC(=O)Nc1cccc(-c2nc3cc(Cl)cc(Cl)c3o2)c1,3.0%
COc1ccc(S(=O)(=O)Nc2nncs2)cc1,i
N#Cc1cc(Oc2ccc(OCc3ccccc3)cc2)c([N+](=O)[O-])cc1C#N,<0.1µg/mL*
COc1ccccc1-c1coc2cc(OCc3ccccc3F)ccc2c1=O,?
CCOc1ccc(-n2c(SCC(=O)NCc3ccccc3)nnc2-c2ccncc2)cc1,i
CCCC(=O)c1cc2c(cc1NC(=O)c1cccs1)OCCO2,i
O=C1CCC([N+](=O)[O-])C(c2ccccc2Br)N1 (stereo not given),i
Cc1cc(C)cc(OCC(=O)Nc2ccc(-c3nn4c(C)nnc4s3)cc2)c1,i
Cc1ccc(NC(=O)CN(c2c(C)cccc2C)S(C)(=O)=O)cc1C,i
O=C(c1ccc(Br)cc1)c1nc2c(n1O)CCCCC2,i
COc1ccc(COc2cc3oc(=O)c4c(c3cc2Cl)CCCC4)cc1,0.5%
O=C1C2C3c4ccccc4C([N+](=O)[O-])(c4ccccc43)C2C(=O)N1CCOCc1ccccc1 (stereo not given),i
COc1ccc(C(=O)CC2(O)C(=O)N(Cc3ccccc3)c3ccc(Br)cc32)cc1OC (stereo not given),6.8%
O=C(COc1ccc([N+](=O)[O-])cc1)Nc1ccc(F)cc1F,?
Nc1ncnc2nc(SCc3nc4ccc(I)cc4c(=O)n3-c3ccccc3)[nH]c12,1.9%
CCn1ncc(NC(=S)NCCc2ccccc2)c1C(N)=O,i
COc1ccc(Cl)cc1NC(=O)CSc1nnc(CNC(=O)c2ccco2)n1C,2.0%
COc1ccc(C(=O)Nc2ccc(-c3nc4ccccc4o3)cc2)cc1OC,i
Cc1cccc(Oc2coc3cc(OC(=O)c4cccs4)ccc3c2=O)c1,?
COc1cc(NC(=S)NC(=O)COc2ccccc2)ccc1NC(=O)c1cccs1,i
NC(=O)c1cc(Cc2ccccc2)sc1NC(=O)c1ccco1,34.2%
Cc1sc(NC(=O)Cn2c(=O)oc3ccccc32)c(C#N)c1C,i
COC(=O)Cc1ccc(NC(=O)COc2ccc(C)c(C)c2)cc1,i
COc1cc(NC(=O)c2ccco2)ccc1NC(=O)C(C)C,0.2%
Cc1ccccc1NC(=S)c1ccc2ccccc2n1,37.9%
Cc1ccccc1OC(C)C(=O)O/N=C(\N)c1ccccc1 (stereo not given),i
CC(NC(=O)c1ccccc1NC(=O)CN(c1ccc(Br)cc1)S(C)(=O)=O)c1ccccc1 (stereo not given),i
COc1ccc(CNC(=O)CSc2nnc(-c3ccc([N+](=O)[O-])cc3)n2C)cc1,i
COc1ccc(C(C)N(C)CCC(=O)O)cc1OC (stereo not given),i
Cc1ccc(NC(=O)Cn2c(-c3nonc3N)nc3ccccc32)cc1Cl,1.4%
O=C(Nc1nccs1)c1cc(-c2ccccn2)nc2c(Cl)cccc12,3.4%
CC(C)(C)c1cc(C(=O)O)c(CN2CCOCC2)o1,i
O=C(NC(c1ccccc1)c1ccc(Br)cc1)c1ccccc1Cl (stereo not given),i
COCCn1c(SCC(=O)Nc2cccc(Cl)c2C)nnc1-c1ccccc1,i
CCc1cccc(C)c1NC(=O)c1ccccc1N(C)S(C)(=O)=O,i
c1ccc(-c2c(-c3ccccc3)n(Cc3ccco3)c3ncn4nc(-c5ccncc5)nc4c23)cc1,5.2%
C1=CC2C(C1)C1CC2C2C1N=NN2c1ccccc1 (stereo not given),0.6%
COc1ccc(C(C)=O)c(OC(=O)c2ccco2)c1,i
Cn1c(SCC(=O)NCC2CCCO2)nnc1-c1ccc(NC(=O)c2ccccc2Cl)cc1 (stereo not given),i
CC(Oc1cccc(Cl)c1)c1nc(-c2ccncc2)no1 (stereo not given),1.4%
CC(=O)c1ccccc1OC(=O)COc1ccc(C)cc1Br,i
COc1ccc(Cl)cc1N=C1NC(=O)CC(C(=O)Nc2ccccc2)S1 (stereo not given),i
COC(=O)c1ccc(NC(=O)CSc2ccc(F)cc2)cc1,4.02µg/mL*
CCCCc1ccc(NC(=O)C(=O)NCCN2CCOCC2)cc1,i
O=C(NC1CCCC1)c1c(F)c(F)c(F)c(F)c1F,i
COc1cccc(OCc2nc3ccccc3c(=O)n2N)c1,i

# The listing continues:
SMILES,Mtb H37Rv
CC(=O)Cc1nsc(NC(=O)c2c(-c3ccccc3Cl)noc2C)n1,i
Cc1cc(S(=O)(=O)NC2CC(C)(C)NC(C)(C)C2)c(Cl)cc1Cl,i
CC1(C)Cc2nc3sc4c(NCCO)ncnc4c3cc2CO1,i
CCc1c(C)sc(NC(=O)c2ccccc2F)c1C(=O)OC,i
Cc1cccc(NC(=O)c2cccnc2)c1,i
CCc1c(C)sc(NC(=S)NCc2ccccn2)c1C(=O)OC,2.4%
O=C1Nc2c(c(=O)[nH]c(=S)n2CCc2ccccc2)C(C(F)(F)F)(C(F)(F)F)N1,1.1%
Cc1ccc(OCCCC(=O)Nc2c(C)cc(C)cc2Cl)cc1,20.3%
N#Cc1ccccc1NC(=O)C1CC(=O)N(c2ccc3c4c(cccc24)CC3)C1 (stereo not given),i
COc1ccccc1OCC(=O)N=Nc1c(O)[nH]c2c(C)cccc12,i
CC(C)OC(=O)c1ccc(NC(=O)CSc2nnnn2-c2ccc(Cl)cc2)cc1,i
CN=C1NC(=O)CC(C(=O)Nc2ccc(F)cc2)S1 (stereo not given),i
CCN(CC)c1ccc(NC(=O)c2cccc3c(Br)cccc23)c(C)c1,i

# By substructure: the compounds so far with fluorine
SMILES,Mtb H37Rv
OC(c1ccc[nH]1)(C(F)(F)F)C(F)(F)F,1.9%
Cc1ccc(C(=O)C2=C(O)C(=O)N(c3nc4ccc(Cl)cc4s3)C2c2ccccc2F)o1 (stereo not given),i
CCN1CCN(C(=O)c2cnn3c(C(F)F)cc(-c4ccccc4)nc23)CC1,2.2%
CCCC(=O)c1ccc(N2CCN(C(=O)C(C)C)CC2)c(F)c1,i
O=C1CC(N2CCCCC2)C(=O)N1c1ccc(Cl)c(C(F)(F)F)c1 (stereo not given),i
COC(=O)C(NC(=O)c1ccc(Cl)cc1)C(F)(F)F (stereo not given),i
O=C(CC1Nc2ccccc2NC1=O)Nc1ccccc1F (stereo not given),i
COc1ccccc1-c1coc2cc(OCc3ccccc3F)ccc2c1=O,?
O=C(COc1ccc([N+](=O)[O-])cc1)Nc1ccc(F)cc1F,?
COC(=O)c1ccc(NC(=O)CSc2ccc(F)cc2)cc1,4.02µg/mL*
O=C(NC1CCCC1)c1c(F)c(F)c(F)c(F)c1F,i
CCc1c(C)sc(NC(=O)c2ccccc2F)c1C(=O)OC,i
O=C1Nc2c(c(=O)[nH]c(=S)n2CCc2ccccc2)C(C(F)(F)F)(C(F)(F)F)N1,1.1%
CN=C1NC(=O)CC(C(=O)Nc2ccc(F)cc2)S1 (stereo not given),i
